Screening data: PubChem BioAssay, National Center for Advancing Translational Sciences (NCATS)
AID923 – qHTS Assay for Allosteric/Competitive Inhibitors of Caspase-1: Spectroscopic Profiling in AFC Spectral Region. compound fluorescence, AFC spectral region (405/520 nm); almost no hit is shown here. Potency, µM (series often up to 57.5 µM), inactives show at the top dose fluorescence increase, most hits filed as activators. 75,000 compounds, 1.1% hits. AID 923, 2007; active = well fitted activation curve with a large enough effect; inconclusive = small, poorly fitted or top-dose-only effect;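 also: potency is read from the fitted curve at half-maximal effect; 0% is about no effect; scaled to a free AFC standard on each plate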
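Compound autofluorescence profiled at 405 nm ex/520 nm em during kinetic caspase 1 run (50 nM enzyme, 5 uM Ac-WEHD-AFC, HEPES pH 7.5, 10 mM DTT). Titration up to 57 uM; baseline from regression intercept, normalized to AFC standard curve.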
A647 fluor – compound fluoresces in the A647 spectral region; Compound fluorescence, A647 channel (570/671 nm), Tris buffer; max dye-equivalent concentration, M; 59,000 tested, under 10 active; active means above 1 µM dye equivalent; inconclusive means 0.1 to 1 µM; inactive means 0.1 µM or less;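 also: values scaled relative to a standard on each plate; highest value over a series up to 38 µM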
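Tris 100 mM pH 8.0; cpd + A647 stds pin-transferred; 15 min RT; CCD imager, ex 570/em 671. Output = A647-equivalent conc. per cpd conc.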
Resorufin fluor – resorufin region autofluorescence | Compound fluorescence, resorufin region 547/598 nm, buffer; hits give high values | max dye-equivalent concentration, M | 59,000 compounds, 0.04% hits; active = above 10 nM dye equivalent; inconclusive = 1 to 10 nM; inactive = 1 nM or less; a few of its hits are not listed in these tables; also: highest value over a series up to 38 µM
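Intrinsic fluorescence profiled in the resorufin window (ex 547 nm, em 598 nm) after 15 min at room temperature in pH 8.0 Tris buffer (100 mM); responses normalized against a six-point resorufin standard series as dye-equivalent concentration.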
A488 autofl – compound autofluorescence in A488 spectral region. compound autofluorescence, A488 spectral region, dye equivalency; hits give high values. max dye equivalency, M. 59,000 compounds, 0.1% hits. AID 591; active = above 10 nM dye equivalent; inconclusive = 1 to 10 nM; inactive = 1 nM or less; about half of its hits are not listed in these tables;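 also: highest value over a series up to 38 µM; compound alone in buffer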
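Readout is A488 dye-equivalent concentration, calibrated by a per-plate six-point Alexa 488 series. Compounds in 100 mM Tris buffer pH 8.0 were incubated 15 min at room temperature. Plates were imaged using 480 nm excitation/540 nm emission filters.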
TSHR ag – agonists of human thyroid stimulating hormone receptor; Potency, µM (top dose mostly 57.1 µM), for the others: at the highest dose activation, actives largely listed as activators; AID 926; HEK293-CNG-TSHR cells (CNG channel as cAMP sensor), membrane potential dye, cAMP; P16473; 73,000 compounds, 0.48% hits; active = well fitted activation curve of enough size with the parental cells flat; inconclusive = any curve in the parental cells; inactive = parental cells flat and receptor cells flat or falling; also: potency is read from the fitted curve at half-maximal effect; % of control where 0% means no effect; weak receptor curves with flat parental cells got no call and are not listed
Target sequence (P16473 whole entry, looked up): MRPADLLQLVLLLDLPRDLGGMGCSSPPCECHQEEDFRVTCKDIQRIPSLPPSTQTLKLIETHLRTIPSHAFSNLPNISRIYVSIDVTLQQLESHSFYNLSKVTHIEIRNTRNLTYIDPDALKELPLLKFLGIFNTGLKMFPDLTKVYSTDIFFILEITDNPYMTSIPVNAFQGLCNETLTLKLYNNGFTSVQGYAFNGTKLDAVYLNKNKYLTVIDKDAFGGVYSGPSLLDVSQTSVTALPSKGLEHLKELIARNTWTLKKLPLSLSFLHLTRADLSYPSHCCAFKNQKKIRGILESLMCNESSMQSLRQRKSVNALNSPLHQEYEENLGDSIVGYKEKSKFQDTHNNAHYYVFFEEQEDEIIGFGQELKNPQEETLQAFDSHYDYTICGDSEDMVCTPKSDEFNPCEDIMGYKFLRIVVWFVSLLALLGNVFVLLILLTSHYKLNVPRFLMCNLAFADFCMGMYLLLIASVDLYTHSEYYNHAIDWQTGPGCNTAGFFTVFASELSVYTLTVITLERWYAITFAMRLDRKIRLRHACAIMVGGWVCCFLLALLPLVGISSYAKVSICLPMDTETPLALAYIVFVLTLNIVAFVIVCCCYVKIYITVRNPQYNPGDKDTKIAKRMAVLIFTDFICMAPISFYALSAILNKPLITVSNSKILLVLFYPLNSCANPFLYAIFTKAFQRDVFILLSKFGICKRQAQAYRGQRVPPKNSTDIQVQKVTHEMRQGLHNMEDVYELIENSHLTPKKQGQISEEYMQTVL
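HEK 293 cells stably expressing TSHR and a cAMP-gated CNG channel; parental CNG-only cells as counterscreen. Cells preloaded 60 min with membrane potential dye plus 100 uM RO 20-1724, then compound 30 min; fluorescence read at 590 nm.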
* = called active by the depositor; i = inactive; ? = inconclusive; . = no result given; & = joins results of further samples; [ ] = another dose, or the depositor's remark. Some of the compounds tested, so the mix of outcomes need not match the whole.

entry	Compound	AID923	A647 fluor	Resorufin fluor	A488 autofl	TSHR ag
1	CCOC(=O)c1c(C)n(COCCO)c2ccc(O)cc12	1.0%	1e-09	i	i	-0.9%
2	O=C(c1cc2c(s1)CCCC2)N1CCC2(CC1)OCCO2	-1.0%	1.58e-08	i	i	1.0%
3	COc1ccc(C=O)cc1	2.7%	.	.	.	?
4	O=C(Cc1ccccc1)N1CCN(Cc2c[nH]c3ccccc23)CC1	-0.3%	1.62e-08	i	i	8.5%
5	CC(C)n1nnnc1CN1CCN(C)CC1	-0.1%	1.23e-08	i	i	-1.1%
6	C=CCn1c(O)c(C(C)=NCc2cc(OC)cc(OC)c2)c(=O)[nH]c1=O	0.5%	2.7e-08	i	i	5.4%
7	CC(NS(=O)(=O)c1ccc(CCC(=O)N2CCN(C)CC2)cc1)c1ccccc1 (stereo not drawn)	-0.2%	2.22e-08	i	i	?
8	CCCCCC[C@H]1C(=O)O[C@H](C)[C@H](NC(=O)c2cccc(NC=O)c2O)C(=O)O[C@@H](C)[C@H]1OC(=O)CC(C)C	-1.8%[25.7 µM]	1e-09	i	i	?
9	O=C1NO[C@H]2[C@@H]1CN[C@@H]2C(=O)O	0.0%	.	.	.	-4.3%
10	COc1ccn(C)c(=O)c1C#N	-2.1%	1.75e-08&1.51e-08	i	i	3.3%
11	C#C[C@]1(O)CC[C@H]2[C@@H]3CCC4=CC(=O)CC[C@]4(C)[C@H]3CC[C@@]21C	.	5.4e-09	i	i	.
12	Cc1cc(OCC(=O)Nc2cc(C)nn2-c2ccccn2)c2c3c(c(=O)oc2c1)CCC3	0.1%	1e-09	i	i	8.9%
13	CO[C@H]1C=C2CCN(C)[C@@H]2[C@@H]2c3cc4c(cc3C(=O)O[C@H]21)OCO4	-1.2%[25.7 µM]	3.77e-08	i	i	7.1%[25.6 µM]
14	O=C(CCS(=O)(=O)c1ccc(Br)cc1)N1CCC2(CC1)OCCO2	-0.4%	1.89e-08	i	i	-5.9%
15	O=C(Cc1ccccc1)OCc1ccccc1	0.5%	.	.	.	3.5%
16	CC(C)CC(NC(=O)C1CCCCC1)C(=O)N1CCC2(CC1)OCCO2 (stereo not drawn)	-2.5%	4.01e-08	i	i	?
17	Cc1ccccc1-n1c(O)c(C=Nc2ccc3c(c2)OCO3)c(=O)[nH]c1=O	6.4%	.	.	.	2.1%
18	CCC(=NCc1ccco1)c1c(O)n(-c2ccccc2)c(=O)[nH]c1=O	0.3%	6.8e-09	i	i	-1.2%
19	CC(C)N1CCC2(CC1)NC(CO)(CO)CO2	3.3%	.	.	.	-4.9%
20	CN(C)CCN=Cc1c(O)n(C2CCCCCC2)c(=O)[nH]c1=O	2.6%	1.05e-08	i	i	-10.9%
21	COC1=CC(=O)OC(/C=C/c2ccccc2)C1 (stereo not drawn)	.	1.64e-08	i	i	.
22	O=P(/C(=N/O)N1CCOCC1)(N1CCOCC1)N1CCOCC1	0.2%	5.2e-09	i	i	-1.4%
23	COc1ccc(P2(=O)Nc3ccccc3N2)cc1	4.7%	2.34e-08	i	i	-17.8%
24	COc1cc2c(c(OC)c1OC)-c1ccc(O)c(=O)cc1[C@H](N)CC2	-1.3%[25.7 µM]	4.09e-08	i	i	-23.2%[25.6 µM]
25	Clc1ccc(C(Cl)(Cl)Cl)c(Cl)c1	2.6%	.	.	.	?
26	C=CCN1C[C@H](C)N([C@@H](c2ccccc2)c2ccc(C(=O)N(CC)CC)cc2)C[C@H]1C	0.7%	.	.	.	0.8%
27	CCCCOC(C)=O	-1.4%	.	.	.	4.1%
28	CC(=O)CCC(C)=O	-0.8%	.	.	.	-4.5%
29	Cc1cccc(C)c1NC1=NCCCS1	9.7%	1.1e-08&2.14e-08&4.77e-08	i	i	?
30	Nn1c(CSc2nc3ccccc3o2)nnc1CSc1nc2ccccc2o1	0.3%	1.35e-08	i	i	?
31	CCCC(C)C1C(C#N)=C(N)Oc2c1c(=O)oc1ccccc21 (stereo not drawn)	-1.6%	.	.	.	10.5%
32	C[C@]12Cc3cn4c(nc3C=C1CC[C@H]1[C@@H]2CC[C@@]2(C)[C@H]1CC[C@@]2(O)C#N)nc1ccccc14	-1.6%	2.67e-08	i	i	?
33	CN(C)C1(c2nnnn2CCOC(=O)Nc2ccc(Cl)cc2)CCCCC1	-2.0%	5.2e-09	i	i	-2.1%
34	CC(=NCC1CCCO1)c1c(O)n(-c2ccc(Cl)cc2)c(=O)[nH]c1=O (stereo not drawn)	-0.6%	3.9e-09	i	i	-4.1%
35	Nc1ccc([N+](=O)[O-])cc1[N+](=O)[O-]	-0.4%	.	.	.	-9.9%
36	Clc1nc(Cl)nc(Nc2ccccc2Cl)n1	1.1%	.	.	.	?

Compound profiles (already shown). Order of values: AID923, A647 fluor, Resorufin fluor, A488 autofl, TSHR ag
Record of CCCCOC(C)=O : -1.4%, ., ., ., 4.1%
Record of Clc1nc(Cl)nc(Nc2ccccc2Cl)n1 : 1.1%, ., ., ., ?

Additional compounds:
entry	Compound	AID923	A647 fluor	Resorufin fluor	A488 autofl	TSHR ag
37	Cc1cc(N=Nc2ccccc2C)ccc1N	-1.3%	.	.	.	?
38	[O-][Br+2]([O-])O	-3.0%&-4.0%	.	.	.	?
39	CCCSP1(=S)NCCCO1 (stereo not drawn)	.	1.1e-09	i	i	.
40	CN1CCN(CCC(C#N)(c2ccccc2)c2ccccc2)CC1	-1.2%	.	.	.	-2.5%
41	Cn1c(C(=O)O)c(CC(=O)N2CCN(Cc3ccccc3)CC2)c2ccccc21	1.6%	5.1e-09	i	i	1.6%
42	N[C@@H](Cc1c[nH]c2cc([N+](=O)[O-])ccc12)C(=O)O	-3.7%[11.5 µM]	4.12e-08	i	i	5.7%[11.4 µM]
43	Cc1ccc([N+](=O)[O-])cc1C	-4.1%	.	.	.	?
44	CCN(c1ccc(C(O)(C(=O)OC)C(F)(F)F)cc1)S(=O)(=O)c1ccccc1 (stereo not drawn)	2.0%	.	.	.	1.8%
45	Nc1ccc(-c2ccc(N)c(Cl)c2)cc1Cl	-3.1%	.	.	.	?
46	O=C(O)c1cccc(Cl)c1	-1.8%	.	.	.	-8.7%
47	COc1ccc(C(CC(=O)N2CCC3(CC2)OCCO3)NS(=O)(=O)c2ccc(C)cc2)cc1 (stereo not drawn)	0.0%	2.06e-08	i	i	10.2%
48	O=C(Cc1ccccc1)N1CCN(C2CCCC2)CC1	0.4%	1.68e-08	i	i	5.4%
49	O=C(CN1CCN(Cc2ccc(Cl)cc2)C1=O)N1CCC2(CC1)OCCO2	0.8%	1.5e-09	i	i	0.4%
50	Cc1cccc(-n2c(O)c(C=NCCCN3CCOCC3)c(=O)[nH]c2=O)c1C	0.1%	1e-09	i	i	-1.4%
51	OC1(c2ccccc2F)CC2CCC(C1)N2CCN1CCOCC1 (stereo not drawn)	1.1%	2.33e-08	i	i	0.6%
52	CCN(CC)C(=O)N[C@H]1C=C2c3cccc4[nH]cc(c34)C[C@@H]2N(C)C1	7.9%[25.7 µM]	2.3e-09	i	?	.
53	CCCCc1nc2ccccc2c(=O)n1-c1ccc(O)cc1	0.6%	2.2e-09	i	i	9.9%
54	O=C1CC(N2CCC(n3c(=O)[nH]c4ccccc43)CC2)C(=O)N1Cc1ccccc1 (stereo not drawn)	-2.4%	3.2e-08	i	i	?
55	CCOc1ccccc1N=C1SCCCN1C	1.1%	1e-09	i	i	7.7%
56	NC(=O)c1ccc(C(=O)Nc2ccc([As](=O)(O)O)cc2)cc1	-0.1%[11.5 µM]	1e-09	i	i	0.2%[11.4 µM]
57	O=C(CN1CCN(Cc2cccc(Cl)c2)C1=O)N1CCC2(CC1)OCCO2	-0.3%	1e-09	i	i	?
58	O=C(O)C12C3CCCC1C32c1ccccc1 (stereo not drawn)	-2.5%	.	.	.	16.9%
59	FC(F)(F)C1=NC(C(F)(F)F)=NP(N2CCOCC2)(N2CCOCC2)=N1	-0.3%	.	.	.	-0.9%
60	OC(Cc1ccccc1)(c1ccccc1)C1CN2CCC1CC2 (stereo not drawn)	.	1e-09	i	i	.
61	OCCOc1ccccc1	0.9%	.	.	.	8.8%
62	C[C@@H]1O[C@H](O[C@@H]2CC[C@@]3(C=O)[C@H]4CC[C@@]5(C)[C@@H](C6=CC(=O)OC6)CC[C@@]5(O)[C@@H]4CC[C@]3(O)C2)C[C@H](O)[C@@H]1O	4.1%[25.7 µM]	1e-09	i	i	9.3%[25.6 µM]
63	COc1cc(-c2ccc(=O)[nH]n2)ccc1OC(F)F	-3.7%	7.4e-09&6.34e-08	i	i	29.0%
64	C/C(=C\[C@@H](N)C(=O)O)CP(=O)(O)O	0.9%	.	.	.	0.6%
65	c1cnc(N2CCCC3(CCNCC3)C2)nc1	1.0%	3.7e-09	i	i	2.2%
66	CC(C)[C@@H](Br)C(=O)NCC(=O)O	8.0%[11.5 µM]	1e-09	i	i	-8.7%[11.4 µM]
67	Oc1cc2c(cc1O)[C@H]1c3ccccc3CN[C@H]1CC2	-3.8%	.	.	.	-1.2%
68	CCOc1ccc(Cn2c(=O)oc3ccc(C)cc32)cc1OC	-0.2%	1e-09	i	i	?
69	Cc1cc(Cl)ccc1N=Cc1c(O)n(C)c(=O)n(C)c1=O	0.8%	.	.	.	?
70	O=C(Cc1ccc(Br)cc1)N1CCN(Cc2ccccc2)CC1	-1.3%	.	.	.	5.3%
71	COc1ccc(CNCC(=O)N2CCC3(CC2)OCCO3)cc1	1.6%	9.6e-09	i	i	8.0%
72	COc1cc(OC)cc(-n2nc(C(=O)N3CCC4(CC3)OCCO4)c3ccccc3c2=O)c1	-1.2%	1e-09	i	i	-1.4%[11.4 µM]
73	CC(C)C[C@H](NC(=O)[C@@H]1CCCN1C(=O)[C@@H](N)Cc1ccc(O)cc1)C(=O)NCC(N)=O	.	1e-09	i	i	.
74	O=P1(NC2CCCC2)COc2ccccc2OC1	1.3%	3.88e-08	i	i	?
75	O=C(Cn1ncc2c3ccccc3n(Cc3ccccc3F)c2c1=O)N1CCC2(CC1)OCCO2	0.3%	6.1e-09	i	i	-17.0%
76	CC1(C)CN=C(NCc2ccccc2Cl)S1	0.2%	1e-09	i	i	?
77	CCC1=C(C[C@H]2NCCc3cc(OC)c(OC)cc32)C[C@H]2c3ccccc3CCN2C1	0.3%[11.5 µM]	4.3e-09	i	i	?
78	CN1CCC(OC(=O)C2c3ccccc3Oc3ccccc32)CC1	.	1.28e-08	i	i	.
79	COc1cccc(N2CCN(Cc3ccc(Cl)cc3)CC2)c1	3.0%	.	.	.	5.9%
80	NC1(P(=O)(O)O)CCCCC1	-0.3%[11.5 µM]	1e-09	i	i	.
81	CCCN1CCO[C@@H]2c3cc(O)ccc3OC[C@@H]21	2.5%	.	.	.	0.3%
82	CCc1cccc(CC)c1N(COC)C(=O)CCl	-1.3%	.	.	.	9.1%
83	C[C@@H]1[C@H]2C=C[C@@H]1[C@@H](c1c3ccc(=O)c(O)c-3oc3c(O)c(O)ccc13)[C@@H]2C(=O)O	-0.3%[11.5 µM]	5.14e-08	i	i	7.0%[11.4 µM]
84	COP(=O)(OC)[C@@H](O)C(Cl)(Cl)Cl	-0.9%[25.7 µM]	1e-09	i	i	7.1%[25.6 µM]
85	O=C(c1ccc(CS(=O)(=O)c2ccccc2)o1)N1CCC2(CC1)OCCO2	-1.6%	7e-09	i	i	-33.2%[inhibitor]
86	COc1cc2c(cc1OC)[C@H](C)NCC2	0.5%[25.7 µM]	1e-09&1e-09	i	i	?

Single values from above:
Result of `CN1CCC(OC(=O)C2c3ccccc3Oc3ccccc32)CC1` in A647 fluor: 1.28e-08
Result of `O=C(c1ccc(CS(=O)(=O)c2ccccc2)o1)N1CCC2(CC1)OCCO2` in A647 fluor: 7e-09
